Source: PubChem (National Center for Advancing Translational Sciences (NCATS))
Marburg entry inh: inhibitors of Marburg virus binding or cell entry; Potency, µM (titrated, usually from 37.8 µM), for inactives: top-dose activity change, negative = inhibition, actives largely listed as inhibitors; 1.8% of 300,000 active; Marburg virus pseudotyped entry inhibition, cell reporter; control for the full effect not named in the record; about a third of the inactives were read at about 46 µM; active = well fitted inhibition curve with a large enough effect; inconclusive = small, poorly fitted or top-dose-only effect, or effect the other way; inactive = flat fitted curve, though single readings scatter; tested in HEK293 cells; about a fifth of its hits are not listed in these tables; also: % is scaled to controls: 0 for no effect and ±100 for the full control effect; luciferase read-out
NS1 function inh: inhibitors of influenza NS1 protein function; Potency, µM (highest dose often 46.1 µM), for the others: at the highest dose activity, positive = more growth; S. cerevisiae slowed by influenza A NS1, growth recovery by OD600; AID 2326; 0.4% of 270,000 active; active means well fitted rising curve with a large enough effect; inconclusive means small, poorly fitted or top-dose-only effect; inactive means no such curve, though single readings can be large or run the other way; also: nearly all actives have a fitted effect of over 50% in size
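S. cerevisiae expressing influenza A NS1, grown in glucose, washed, then diluted 1:100 into pH 6.0 -URA galactose medium with 23 nl compound. Growth recovery read as OD600; NS1-free strain serves as control.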
LASV entry inh: blocks Lassa virus binding to or entry into cells. Potency, µM (titrated, usually from 37.9 µM), inactives show at the top dose activity change, negative = inhibition, hits mostly inhibitors. 1.2% of 300,000 active. Lassa virus pseudotype entry inhibition, cell reporter; control for the full effect not named in the record; active means well fitted inhibition curve with a large enough effect; inconclusive means small, poorly fitted or top-dose-only effect, or effect the other way; inactive means flat fitted curve, though single readings scatter; tested in HEK293 cells; also: % is scaled to controls: 0 for no effect and ±100 for the full control effect; nearly all actives have a fitted effect of over 50% in size; luciferase read-out
Cruzain noTriton: cruzain (T. cruzi) inhibition without detergent. P25779. Potency, µM, inactives show max response, negative = inhibition, hits mostly inhibitors. 2.3% of 200,000 active. purified cruzain, Z-FR-AMC fluorescence, no detergent;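 also: plate controls were enzyme without inhibitor for no effect and buffer without enzyme for full effect; nearly all actives have a fitted effect of over 40% in size; top concentration of the series not given in the record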
Target sequence (P25779 123-467 limits assumed): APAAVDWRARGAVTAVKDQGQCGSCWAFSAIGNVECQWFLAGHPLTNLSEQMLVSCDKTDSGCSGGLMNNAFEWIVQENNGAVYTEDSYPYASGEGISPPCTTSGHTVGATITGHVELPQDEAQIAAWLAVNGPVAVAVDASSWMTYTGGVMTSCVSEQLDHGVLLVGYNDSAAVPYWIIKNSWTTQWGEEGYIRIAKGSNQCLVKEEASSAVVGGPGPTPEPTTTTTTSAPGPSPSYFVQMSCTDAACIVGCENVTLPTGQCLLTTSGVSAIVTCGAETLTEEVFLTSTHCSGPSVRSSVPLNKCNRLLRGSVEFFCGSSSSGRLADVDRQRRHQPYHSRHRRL
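Detergent-free condition (0.00005% Triton X-100) in acetate buffer pH 5.5 with DTT. 1.5 nM enzyme and compound were pre-mixed 15 min, then 2 uM Z-FR-AMC substrate added; reaction progress from fluorescence change between first and third reads (60 s).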
StopGo reporter: FMDV 2A StopGo reporter, luciferase signal; human cells with a luciferase reporter of 2A StopGo recoding; control for the full effect not named in the record; Potency, µM (titrated, usually from 57.9 µM), without a hit: at the top dose signal change, negative = less light; 1.2% of 410,000 active; AID 1159524; active = well fitted falling curve with a large enough effect; inconclusive = small, poorly fitted or top-dose-only effect; inactive = no such curve, though single readings can be large or run the other way; tested in HEK293T cells; also: % is scaled to controls: 0 for no effect and ±100 for the full control effect; nearly all actives have a fitted effect of over 45% in size; luciferase light after 4 h
Cruzain inh Det: inhibitors of Trypanosoma cruzi cruzain with detergent | Potency, µM, for inactives: max response, negative = inhibition, usual class: inhibitors | 0.43% of 200,000 active | purified cruzain, Z-FR-AMC fluorescence, 0.01% Triton;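 also: plate controls were neutral wells for no effect and buffer without enzyme for full effect; nearly all actives have a fitted effect of over 40% in size; top concentration of the series not given in the record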
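Cruzain (1.5 nM) preincubated 15 min at RT with compound in 100 mM sodium acetate pH 5.5, 5 mM DTT, 0.01% Triton X-100. Reaction started with 2 uM Z-FR-AMC; AMC fluorescence (ex 360/em 450 nm) change over 60 s gave rate.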
RE007 growth inh: less growth of the S. pombe RE007 Vpr strain. S. pombe RE007 Vpr strain, BacTiter-Glo ATP luminescence, 24 h; control for the full effect not named in the record. Potency, µM (titrated, usually from 92.2 µM), for the others: top-dose activity change, negative = less growth. 0.21% of 360,000 active. AID 651644; active = well fitted falling curve with a large enough effect; inconclusive = small, poorly fitted or top-dose-only effect; inactive = no such curve, though single readings can be large or run the other way;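 also: % is scaled to controls: 0 for no effect and ±100 for the full control effect; nearly all actives have a fitted effect of over 50% in size; the assay follows cell death caused by Vpr and the record does not say whether a fall means rescue or toxicity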
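Fission yeast strain RE007, carrying one chromosomally integrated HIV-1 vpr copy, was seeded at OD 0.01 in PMG+AL medium with 23 nL pinned compound. After 24 h at 30 °C and 99% humidity, viability was read by BacTiter-Glo luminescence.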
SARS PLpro yeast: inhibitors of SARS-CoV papain-like protease in yeast; 0.19% of 330,000 active; AID 485353; S. cerevisiae expressing SARS-CoV PLpro, growth rescue; control for the full effect not named in the record; Potency, µM (highest dose often 32.9 µM), for inactives: at the top dose activity, positive = growth rescue; active means well fitted rising curve with a large enough effect; inconclusive means small, poorly fitted or top-dose-only effect; inactive means no such curve, though single readings can be large or run the other way; also: 0% is about no effect; nearly all actives have a fitted effect of over 55% in size; growth read by luminescence after 48 h
* = called active by the depositor; ? = inconclusive; . = not tested or not shown; [ ] = another dose, or the depositor's remark. Unless noted, calls follow the shape of the dose curve; as a rule, active = well fitted curve in the direction sought with a large enough effect; inconclusive = small, poorly fitted or top-dose-only effect, or another doubt; inactive = no such curve, though single readings can be large; an effect the other way counts as inactive or inconclusive. Potency is read from the fitted curve at half-maximal effect. Rows were taken by chance (roughly 4.5% active in at least one column).

structure,LASV entry inh,NS1 function inh,Cruzain inh Det,SARS PLpro yeast,StopGo reporter,Cruzain noTriton,RE007 growth inh,Marburg entry inh
Cc1ccc(C(C(=O)NCc2ccco2)N(Cc2ccco2)C(=O)CNC(=O)c2ccco2)cc1 (centres undefined),20%,-7%,-3.9%,-10%,3%,-2%,-4%,?
CCCSc1nc(N)cc(=O)[nH]1,12%,-5%,2.9%,1%,.,2%,-8%,-9%
C=CCNc1nc(Cl)nc(NCc2ccco2)n1,20%,-11%,.,-5%,13%,.,4%,-23%
N#Cc1c(N2CCOCC2)nsc1-c1ccc(C(F)(F)F)cc1,.,-2%,.,0%,-6%,.,19%,?
C=CCn1c(SCC(=O)Nc2ccccc2C)nc(O)cc1=O,0%[46.1 µM],27%,.,2%,-1%,.,16%,10%[46.1 µM]
CC(NC(=S)Nc1c(Cl)cccc1OC(F)F)C(C)(C)C (centres undefined),10%,-19%,-0.2%,?,-8%,5%,-9%,29%
CCc1ccc(NC(=O)c2sc(-n3nc(C)c(CCC(C)C)c3C)nc2C)cc1,13%[46.1 µM],.,0.7%,.,-22%,-11%,.,-5%[46.1 µM]
CCn1c(SCC(=O)N/N=C/c2ccncc2)nc2ccccc21,.,7%,.,-1%,-11%,.,-2%,.
CCn1c2ccccc2c2cc(N=C3SC(CC(=O)Nc4ccccc4OC)C(=O)N3CCOC)ccc21 (centres undefined),9%,?,-3.8%,10%,-20%,0%,-8%,?
CCOc1ccc(CNC(=O)C2CCN(S(=O)(=O)N3CCCC3)CC2)cc1OC,13%,-2%,6.4%,-10%,.,-7%,1%,14%
CCC(=O)NCCCNc1nc2c(C)cccc2cc1C#N,2%,.,.,-5%,-19%,.,-10%,-26%[46.1 µM]
CCc1ccc(CNc2ccc(O)cc2)cc1,?,27%,-21%,?,-2%,32µM*,-3%,-29%
Cc1ccc(C)c(N2CCN(S(=O)(=O)c3ccc4[nH]c(=O)ccc4c3)CC2)c1,.,-8%,.,-7%,0%,.,-9%,.
O=C(Nc1sc2c(c1C(=O)NCc1cccnc1)CCCC2)c1ccco1,-8%,-76%,-17%,-5%,-14%,9%,-2%,?
Cc1nonc1CC(=O)N1CCc2c([nH]c3ccccc23)C1c1ccccc1F (centres undefined),-13%,1%,.,0%,12%,.,5%,?
COc1cccc(C(=O)OCCNC(=O)c2cccnc2)c1,20%,13%,.,2%,-9%,.,-8%,14%[46.1 µM]

One compound at a time, as listed above.
`CCOc1ccc(CNC(=O)C2CCN(S(=O)(=O)N3CCCC3)CC2)cc1OC` is listed as LASV entry inh = 13%; NS1 function inh = -2%; Cruzain inh Det = 6.4%; SARS PLpro yeast = -10%; StopGo reporter = .; Cruzain noTriton = -7%; RE007 growth inh = 1%; Marburg entry inh = 14%
`Cc1nonc1CC(=O)N1CCc2c([nH]c3ccccc23)C1c1ccccc1F` (centres undefined) is listed as LASV entry inh = -13%; NS1 function inh = 1%; Cruzain inh Det = .; SARS PLpro yeast = 0%; StopGo reporter = 12%; Cruzain noTriton = .; RE007 growth inh = 5%; Marburg entry inh = ?

Other results
structure,LASV entry inh,NS1 function inh,Cruzain inh Det,SARS PLpro yeast,StopGo reporter,Cruzain noTriton,RE007 growth inh,Marburg entry inh
CC(C)OCCCNC(=O)c1ccc2c(c1)S(=O)(=O)c1ccccc1C2=O,0%,-7%,.,-3%,-11%,.,3%,2%
O=C(Cc1ccccc1)N/N=C/c1ccc2c(c1)OCO2,?,.,.,5%,72%[activator],.,-12%,0%[46.1 µM]
COc1cccc(-n2c(SCC(=O)c3c[nH]c4ccccc34)nc3ccccc3c2=O)c1,-5%,12%,-3.8%,4%,-21%,?,-1%,0%
Cc1cccc(-c2nc3ccccc3n3c(-c4ccccc4)c4c(=O)n(C)c(=O)n(C)c4c23)c1,?,.,-0.5%,.,-5%,-6%,.,?
Cc1ccc2c(c1)cc(C(=O)NCc1ccccc1C)n2C,?,.,-0.9%,.,12%,-12%,.,?
COc1cc(O)c(C(=O)O)c(CCc2ccccc2)c1,.,.,.,-22%,-9%,.,-6%,0%
COc1cc(COc2ccc3c(C)c(CC(=O)O)c(=O)oc3c2C)cc(OC)c1OC,.,13%,.,-1%,-3%,.,16%,.
CCCn1ccc2c(OCC(=O)Nc3ccc(OC)c(OC)c3)cccc2c1=O,?,.,-3.2%,.,?,22%,.,.
CCOc1ccc(CCNC(=O)C2CSC3(C)CCC(=O)N23)cc1OCC (centres undefined),10%[46.1 µM],15%,.,-4%,-14%,.,-11%,-3%[46.1 µM]
CCOC(=O)N1CCN(C(=O)c2cc3c(s2)-c2c(C)cccc2OC3)CC1,.,0%,.,20%,-21%,.,-2%,.
Cc1ccc2nc3c(cc(C(=O)NC4CCS(=O)(=O)C4)n3Cc3ccccc3)c(=O)n2c1 (centres undefined),.,11%,.,-4%,-16%,.,6%,.
Cc1cccc(N=C2NC(=O)/C(=C3/C(=O)N(C)c4ccccc43)S2)c1C,-3%,-50%,-3.9%,-4%,-27%,?,-14%,9%[46.1 µM]
Cn1c(CNS(=O)(=O)c2ccc(Cl)cc2)cc(=O)n(C)c1=O,5%[46.1 µM],-5%,.,0%,29%,.,16%,?
O=C(Nc1ccc(F)cc1F)c1cc(-c2ccccc2O)no1,?,.,-8.3%,.,40%[activator],?,.,.
CCc1nc(-n2[nH]c(=O)c3ccccc3c2=O)c2c3c(sc2n1)CCCC3,16%,.,.,.,-22%,.,18%,1%
Cc1cc(-c2ccc(C)c(S(=O)(=O)Nc3ccccn3)c2)on1,17%[46.1 µM],.,3.5%,.,68%[activator],-12%,.,.
COc1ccc(CN2CN=C(Nc3nc4ccccc4s3)NC2)cc1,?,-11%,-25%,-9%,-15%,8%,-6%,-14%
O=C(Nc1ccccc1)OCc1cc(-c2ccccc2Cl)on1,-24%,-9%,-2.9%,-1%,34%[activator],0%,0%,?
CN(Cc1nc(-c2cnccn2)no1)C1CC(C)(C)NC(C)(C)C1,11%,1%,.,0%,17%,.,-4%,2%[46.1 µM]
O=C(NNc1c(Cl)cccc1Cl)c1c(F)cccc1Cl,1%[46.1 µM],1%,.,-2%,-22%,.,10%,-3%[46.1 µM]
CC(=O)NC1CC2CCCC(C1)N2CC(=O)NCc1ccc(F)cc1 (centres undefined),0%,-1%,3.8%,2%,9%,-1%,-5%,12%
COc1ccc(NC(=O)N2CCCC(C(=O)NCCc3ccccc3)C2)cc1 (centres undefined),?,-5%,.,?,34%[activator],.,-4%,28%[46.1 µM]
COc1ccc(S(=O)(=O)N(CC(=O)NC2CCCC2)c2ccccc2OC)cc1,-1%,-3%,.,?,0%,.,-24%,?
Cc1cccn2c(=O)cc(COC(=O)C(C)Oc3ccccc3)nc12 (centres undefined),5%,.,.,-11%,-3%,.,10%,18%
CCOC(=O)CCc1ccc(NC(=O)/C=C/c2ccc([N+](=O)[O-])o2)cc1,7.1µM*,.,.,.,25µM*,.,0%,?
COc1ccc(N2CCCn3c2nc2c3c(=O)n(Cc3ccccc3F)c(=O)n2C)c(OC)c1,2%,-11%,-1.7%,1%,-25%,?,6%,?
CC(O)CNCCCCOc1ccc(OCc2ccccc2)cc1 (centres undefined),19%,1%,.,0%,33%[activator],.,-1%,?
CC(C)(C)c1ccc(C(=O)OCCNC(=O)c2c(Cl)nc3ccccn23)cc1,?,20%,-2.8%,2%,?,?,13%,?
COc1cc(C)nc(N(C)S(=O)(=O)c2ccccc2Cl)n1,-13%,5%[9.22 µM],-0.4%,5%,-29%,-7%,-5%,?
O=C1OC(NC(=O)c2ccccc2)C(N2CCOCC2)=C1Cl (centres undefined),5%,-16%,4.2%,0%,12%,-4%,7%,6%
COc1ccc(NC(=O)CN(C)C(=O)c2cccc(S(=O)(=O)N3CCN(Cc4ccccc4)CC3)c2)cc1,?,11%,.,3%,?,.,6%,?
Cc1ccc(C)c(OCC(=O)Nc2nc3ccc([N+](=O)[O-])cc3s2)c1C,-1%,12%,2.8%,5%,0%,?,-3%,0%
COc1ccc(/C=C2\SC(=S)N(Cc3cccnc3)C2=O)cc1C,9%,-1%,-4.3%,4%,16%,7%,-16%,?

Compounds listed so far containing fluorine, in the order listed:
structure,LASV entry inh,NS1 function inh,Cruzain inh Det,SARS PLpro yeast,StopGo reporter,Cruzain noTriton,RE007 growth inh,Marburg entry inh
N#Cc1c(N2CCOCC2)nsc1-c1ccc(C(F)(F)F)cc1,.,-2%,.,0%,-6%,.,19%,?
CC(NC(=S)Nc1c(Cl)cccc1OC(F)F)C(C)(C)C (centres undefined),10%,-19%,-0.2%,?,-8%,5%,-9%,29%
Cc1nonc1CC(=O)N1CCc2c([nH]c3ccccc23)C1c1ccccc1F (centres undefined),-13%,1%,.,0%,12%,.,5%,?
O=C(Nc1ccc(F)cc1F)c1cc(-c2ccccc2O)no1,?,.,-8.3%,.,40%[activator],?,.,.
O=C(NNc1c(Cl)cccc1Cl)c1c(F)cccc1Cl,1%[46.1 µM],1%,.,-2%,-22%,.,10%,-3%[46.1 µM]
CC(=O)NC1CC2CCCC(C1)N2CC(=O)NCc1ccc(F)cc1 (centres undefined),0%,-1%,3.8%,2%,9%,-1%,-5%,12%
COc1ccc(N2CCCn3c2nc2c3c(=O)n(Cc3ccccc3F)c(=O)n2C)c(OC)c1,2%,-11%,-1.7%,1%,-25%,?,6%,?
